Vaccinia inh = blocks a specific stage of Vaccinia orthopoxvirus infection, primary screen, cell-based, single point; Vaccinia-infected cells, mCherry/Venus stage reporter fluorescence; stronger effect = lower value; some inactives read as strong as hits; activity change (mCherry), % (concentration not given with the values); hit rate 0.01% among 89,000;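 active = mCherry past -33% and 40 or more points under the early reporter, replicates agreeing; inconclusive = past -33% without that gap or agreement; tested in A549 cells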;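 note: scaled between vehicle wells and reference inhibitor wells; 23 nL library stock went into each well; one replicate is shown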
Vaccinia inh Venus = recorded beside Vaccinia inh, whose call it bears; activity change (Venus), %; measured here: Venus reporter, other viral stage;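 negative = less Venus signal; first of two replicates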
* marks the source's active call; other numbers are inactive results; ? = inconclusive; . = not tested or not shown. Only part of the results is shown; rates above refer to the full screens.

Each structure is followed by: Vaccinia inh	Vaccinia inh Venus
> CO[C@H](CN(C)Cc1cc(F)ccc1F)[C@H](C)CN([C@@H](C)CO)S(=O)(=O)c1ccc(C)cc1
 : -4	-5
> CCCC#Cc1ccc([C@H]2[C@H]3CN(C(=O)Cc4cccnc4)CC(=O)N3[C@H]2CO)cc1
 : -1	-3
> C[C@@H]1CCCCO[C@H](CN(C)CC2CC2)[C@@H](C)CN([C@H](C)CO)C(=O)c2cc(NC(=O)Nc3ccccc3)ccc2O1
 : 4	-8
> C[C@H](CO)N1C[C@H](C)[C@@H](CN(C)S(=O)(=O)c2ccccc2)Oc2c(NC(=O)c3nc4ccccc4s3)cccc2C1=O
 : 10	3
> C[C@@H]1CN([C@H](C)CO)C(=O)c2cccc(NS(C)(=O)=O)c2O[C@H]1CN(C)C(=O)Nc1ccc2c(c1)OCO2
 : -1	5
> C[C@H](CO)N1C[C@H](C)[C@@H](CN(C)S(=O)(=O)c2ccc(Cl)cc2)Oc2ccc(NC(=O)Nc3ccc4c(c3)OCO4)cc2CC1=O
 : -12	3
> N#C[C@H]1[C@@H](c2ccc(C3=CCCC3)cc2)[C@H](CO)N1c1nc(-c2ccccc2)cs1
 : -3	2
> C[C@@H]1CN([C@@H](C)CO)C(=O)Cc2cc(NS(C)(=O)=O)ccc2O[C@@H]1CN(C)Cc1ccc2c(c1)OCO2
 : -6	-2
> C[C@@H]1CN([C@H](C)CO)C(=O)c2cc(NC(=O)CCC(F)(F)F)ccc2O[C@@H](C)CCCCO[C@@H]1CN(C)Cc1ccc(Cl)c(Cl)c1
 : -27	-18
> CC(C)C#Cc1ccc2c(c1)O[C@H](CN(C)Cc1ccccc1)[C@H](C)CN([C@@H](C)CO)S2(=O)=O
 : ?	.
> CCCNC(=O)N1CC(=O)N2[C@H](CO)[C@@H](c3ccc(-c4ccc(F)cc4)cc3)[C@H]2C1
 : -31	-21
> O=C(CN1CCOCC1)N1[C@@H]2CNc3ccccc3[C@@H]2[C@@H]1CO
 : 8	4
> COc1ccc(S(=O)(=O)N(C)C[C@H]2Oc3c(NC(=O)NC4CCCCC4)cccc3C(=O)N([C@H](C)CO)C[C@H]2C)cc1
 : -20	-18
> CO[C@H]1CN(C)C(=O)c2cc(NC(=O)Nc3ccccc3F)ccc2OC[C@H](C)NC[C@H]1C
 : -4	1
> CCCNC(=O)N1CC2(CCN(Cc3cccc(OC)c3)CC2)c2c(n(C)c3cc(OC)ccc23)[C@H]1CO
 : ?	.
> CCCN1C[C@@H](C)[C@@H](OC)CN(C)C(=O)c2cc(NC(=O)CC(F)(F)F)ccc2OC[C@H]1C
 : -1	-6
> COC(=O)C[C@@H]1C[C@@H]2c3cc(NC(=O)C4CCOCC4)ccc3O[C@@H]2[C@@H](CO)O1
 : 9	2
> Cc1noc(C)c1NC(=O)N(C)C[C@@H]1Oc2c(cccc2N(C)C)C(=O)N([C@H](C)CO)C[C@@H]1C
 : 3	-3
> CN1c2ccc(-c3ccc(C#N)cc3)cc2[C@@H]2[C@@H](CCN2C(=O)CC2CC2)[C@@H]1CO
 : -23	-20
> C[C@@H]1CN([C@@H](C)CO)C(=O)c2cc(C#CC3(O)CCCC3)cnc2O[C@@H]1CN(C)C(=O)Cc1cccnc1
 : 17	13
> C[C@@H]1CCCCO[C@H](CN(C)Cc2ccc(C(=O)O)cc2)[C@H](C)CN([C@H](C)CO)C(=O)c2cc(NC(=O)NC3CCCCC3)ccc2O1
 : 14	6
> C[C@@H]1CN([C@H](C)CO)C(=O)Cc2cc(NC(=O)Nc3ccccc3)ccc2O[C@H]1CN(C)S(C)(=O)=O
 : 10	0
> C[C@H]1CN([C@@H](C)CO)C(=O)Cc2cc(NC(=O)Nc3ccccc3)ccc2O[C@@H]1CN(C)S(=O)(=O)c1ccccc1
 : 21	17
> O=C(c1ccccn1)N1CC(=O)N2[C@H](CO)[C@@H](c3ccc(C#Cc4ccccc4)cc3)[C@H]2C1
 : 14	-2
> Cc1ccc(S(=O)(=O)Nc2ccc3c(c2)C(=O)N([C@@H](C)CO)C[C@@H](C)[C@@H](CN(C)Cc2ccc(Cl)c(Cl)c2)OCCCC[C@@H](C)O3)cc1
 : ?	.
> C[C@H]1CCCCO[C@H](CN(C)S(=O)(=O)c2ccc(F)cc2)[C@@H](C)CN([C@@H](C)CO)C(=O)c2cc(NS(=O)(=O)c3ccccc3)ccc2O1
 : ?	.
> C/C=C/c1ccc2c(c1)O[C@H](CN(C)Cc1cncnc1)[C@H](C)CN([C@H](C)CO)S2(=O)=O
 : 2	-8
> Cc1ccc(S(=O)(=O)N[C@@H]2C=C[C@@H](CC(=O)NCc3ccncn3)O[C@@H]2CO)cc1
 : 6	4
> CC(C)NC(=O)N(C)C[C@H]1Oc2ccc(NC(=O)Nc3ccccc3)cc2CC(=O)N([C@@H](C)CO)C[C@H]1C
 : 7	-1
> C[C@@H]1CN([C@H](C)CO)C(=O)c2cc(C#C[C@@H](C)O)cnc2O[C@H]1CN(C)C(=O)Cc1ccncc1
 : 8	9
> O=C(Cc1ccccn1)N[C@@H]1C=C[C@@H](CC(=O)N2CCCCC2)O[C@H]1CO
 : -6	0
> COc1ccc2c3c(n(C)c2c1)[C@@H](CO)N(C(=O)NC1CCCCC1)CC31CN(C)C1
 : -6	1
> O=C(Nc1cc(F)ccc1F)N[C@H]1C=C[C@@H](CC(=O)N2CCc3ccccc3C2)O[C@H]1CO
 : -17	-16
> CCCN(C)C[C@@H]1Oc2cc(/C=C/c3ccccc3)ccc2S(=O)(=O)N([C@@H](C)CO)C[C@@H]1C
 : ?	.
> C[C@@H]1CN([C@H](C)CO)C(=O)c2cccc(NC(=O)C3CCOCC3)c2O[C@H]1CN(C)S(=O)(=O)c1ccc(F)cc1
 : 5	3
> CC(C)C#Cc1cnc2c(c1)C(=O)N([C@@H](C)CO)C[C@@H](C)[C@H](CN(C)Cc1ccccc1)O2
 : -22	-12
> C[C@H](NC(=O)C[C@@H]1CC[C@@H](NC(=O)C2CCC2)[C@@H](CO)O1)c1ccccc1
 : 1	3
> CC(=O)Nc1ccc2c(c1)C(=O)N(C)[C@H]1CC[C@H](CC(=O)NCC3CC3)O[C@@H]1CO2
 : 13	8
> CC(C)C#Cc1cnc2c(c1)C(=O)N([C@@H](C)CO)C[C@H](C)[C@@H](CN(C)Cc1ccccc1)O2
 : -15	-9
> CCC(=O)N1[C@@H](CO)[C@@H](c2ccccc2)[C@@H]1CN(CC)C(=O)c1cccc(F)c1
 : -1	-2
> O=C(Cc1ccccn1)NCC[C@@H]1CC[C@H](NS(=O)(=O)c2ccc(F)cc2)[C@H](CO)O1
 : -8	-10
> CNC[C@H]1OCCCC[C@@H](C)Oc2ccc(NC(=O)Nc3ccc4c(c3)OCO4)cc2C(=O)N([C@H](C)CO)C[C@H]1C
 : -1	6
> C[C@H]1CN([C@@H](C)CO)C(=O)c2cc(NS(=O)(=O)c3ccc(Cl)cc3)ccc2O[C@H]1CN(C)Cc1ccccc1
 : -15	-10
> CCC(=O)N(C)C[C@@H]1Oc2cc(C#C[C@@H](C)O)ccc2S(=O)(=O)N([C@H](C)CO)C[C@H]1C
 : 27	18
> CN(C[C@H]1[C@@H](c2ccccc2)[C@@H](CO)N1C(=O)C1CCC1)C(=O)c1ccncc1
 : 3	-3
> CN(C)CC(=O)Nc1ccc2c(c1)[C@H]1C[C@H](CC(=O)NCc3ccc4c(c3)OCO4)O[C@H](CO)[C@H]1O2
 : 9	9
> COc1ccccc1-c1cnc2c(c1)C(=O)N([C@@H](C)CO)C[C@@H](C)[C@H](CN(C)Cc1cncnc1)O2
 : 4	-5
> C[C@H]1CN([C@@H](C)CO)C(=O)c2cc(NS(=O)(=O)c3cccs3)ccc2O[C@H]1CN(C)C(=O)NC1CCCCC1
 : 5	11
> C[C@@H](O)C#Cc1ccc([C@@H]2[C@H]3CN(CC4CCOCC4)CCCCN3[C@H]2CO)cc1
 : 29	15
> CC(C)(O)C#Cc1ccc([C@H]2[C@H]3CN(C(=O)c4cccc(F)c4)CCCCN3[C@H]2CO)cc1
 : -9	-20
> CN(C)C(=O)c1ccc(-c2ccc([C@@H]3[C@H](C#N)N(S(C)(=O)=O)[C@H]3CO)cc2)cc1
 : 10	6
> CC(C)CC#Cc1cnc2c(c1)C(=O)N([C@@H](C)CO)C[C@H](C)[C@H](CN(C)C(=O)c1cnccn1)O2
 : 10	2
> CO[C@@H]1CN(C)C(=O)c2ccc(NS(C)(=O)=O)cc2OC[C@@H](C)N(CC2CC2)C[C@H]1C
 : -1	4
> CNC[C@@H]1OCCCC[C@@H](C)Oc2ccc(NC(=O)Nc3c(C)noc3C)cc2C(=O)N([C@H](C)CO)C[C@H]1C
 : 4	12
> CC(C)(C)[S@@](=O)N1Cc2cc(C(=O)NC3CCC3)nc(-c3cccc(Br)c3)c2[C@H]1CCO
 : -5	2
> C[C@@H]1CN([C@H](C)CO)S(=O)(=O)c2ccc(C#CC3CC3)cc2O[C@@H]1CN(C)CC1CCOCC1
 : -15	-12
> CCCN(C)C[C@@H]1OCCCC[C@@H](C)Oc2ccc(NC(=O)Nc3ccc(C(F)(F)F)cc3)cc2C(=O)N([C@H](C)CO)C[C@H]1C
 : 6	0
> C[C@H](CO)N1C[C@H](C)[C@@H](CN(C)S(=O)(=O)c2cn(C)cn2)Oc2ccc(NC(=O)Cc3cn(C)c4ccccc34)cc2CC1=O
 : 9	16
> C[C@@H]1CN([C@H](C)CO)C(=O)c2cc(NC(=O)CCC(F)(F)F)ccc2O[C@@H]1CN(C)Cc1ccncc1
 : -18	-17
> COc1ccccc1-c1cn(CC[C@H]2CC[C@@H](NC(=O)CCN3CCCCC3)[C@H](CO)O2)nn1
 : 4	12

Remaining list, next part.
Each structure is followed by: Vaccinia inh	Vaccinia inh Venus
> CN(C)CC(=O)Nc1ccc2c(c1)[C@@H]1C[C@H](CC(=O)N3CCN(C)CC3)O[C@@H](CO)[C@@H]1O2
 : 8	8
> C[C@H]1CCCCO[C@H](CN(C)S(=O)(=O)c2cn(C)cn2)[C@@H](C)CN([C@@H](C)CO)C(=O)c2cc(NS(=O)(=O)c3cn(C)cn3)ccc2O1
 : 22	17
> COc1ccccc1NC(=O)N1CC(=O)N2[C@H](CO)[C@H](c3ccc(C#Cc4ccccc4)cc3)[C@@H]2C1
 : -27	-18
> C[C@H]1CN([C@@H](C)CO)C(=O)c2cc(NC(=O)CCCN(C)C)ccc2O[C@H]1CN(C)C(=O)Nc1ccc2c(c1)OCO2
 : 21	15
> COc1cccc(C#Cc2ccc([C@H]3[C@H]4CN(C(=O)c5ccncc5)CC(=O)N4[C@H]3CO)cc2)c1
 : ?	.
> C[C@H](NC(=O)[C@H]1[C@H](CO)[C@H]2Cn3c(cccc3=O)[C@@H]1N2Cc1cccnc1)c1ccccc1
 : 3	-3
> C[C@H](O)C#Cc1cnc2c(c1)C(=O)N([C@@H](C)CO)C[C@H](C)[C@@H](CN(C)CC1CCOCC1)O2
 : 13	15
> CCC(=O)N(C)C[C@H]1Oc2cc(C#CC3CCCCC3)ccc2S(=O)(=O)N([C@H](C)CO)C[C@H]1C
 : -24	-22
> C[C@H]1CN([C@@H](C)CO)C(=O)Cc2cc(NC(=O)Cc3ccccc3)ccc2O[C@H]1CN(C)C
 : 2	1
> Cc1ccc(S(=O)(=O)N[C@H]2C=C[C@H](CC(=O)NCc3ccncn3)O[C@@H]2CO)cc1
 : 7	8
> C[C@@H]1CN([C@@H](C)CO)C(=O)CCCn2cc(nn2)CO[C@@H]1CN(C)Cc1ccccc1C(=O)O
 : 18	12
> C/C=C/c1ccc2c(c1)O[C@@H](CN(C)S(=O)(=O)c1ccccc1OC)[C@@H](C)CN([C@@H](C)CO)S2(=O)=O
 : 18	-1
> C[C@@H](NC(=O)C[C@@H]1CC[C@H](NC(=O)Nc2ccc3c(c2)OCO3)[C@H](CO)O1)c1ccccc1
 : -6	-4
> COc1ccc(CN(C)C[C@H]2Oc3c(NC(=O)C4CC4)cccc3C(=O)N([C@@H](C)CO)C[C@H]2C)cc1
 : 16	25
> Cc1ccccc1-c1ccc([C@@H]2[C@@H](CO)N3CCCCN(S(C)(=O)=O)C[C@@H]23)cc1
 : 4	-1
> O=C(c1ccncc1)N1CC2(C1)[C@H](c1ccccc1)[C@@H](CO)N2C(=O)CC1CC1
 : 9	15
> C[C@H](CO)N1C[C@H](C)[C@H](CN(C)C(=O)Nc2ccccc2)Oc2ccc(NC(=O)C3CCCCC3)cc2CC1=O
 : ?	.
> CCCC#Cc1ccc([C@H]2[C@@H](CO)N3CCCCN(S(=O)(=O)c4ccccc4C)C[C@H]23)cc1
 : ?	.
> COc1ccc(CNC(=O)C[C@H]2C[C@H]3c4cc(NS(=O)(=O)c5ccc(F)cc5)ccc4O[C@H]3[C@@H](CO)O2)cc1
 : -2	13
> CCC(=O)N1CC(=O)N2[C@H](CO)[C@H](c3ccc(-c4ccccc4C)cc3)[C@@H]2C1
 : 10	-1
> Cc1ccc(S(=O)(=O)N(C)C[C@@H]2Oc3ccc(NS(=O)(=O)c4cccs4)cc3C(=O)N([C@@H](C)CO)C[C@@H]2C)cc1
 : 9	5

Rewritten in CSV form: part of the list above.
compound,Vaccinia inh,Vaccinia inh Venus
COc1ccccc1NC(=O)N1CC(=O)N2[C@H](CO)[C@H](c3ccc(C#Cc4ccccc4)cc3)[C@@H]2C1,-27,-18
C[C@H]1CN([C@@H](C)CO)C(=O)c2cc(NC(=O)CCCN(C)C)ccc2O[C@H]1CN(C)C(=O)Nc1ccc2c(c1)OCO2,21,15
COc1cccc(C#Cc2ccc([C@H]3[C@H]4CN(C(=O)c5ccncc5)CC(=O)N4[C@H]3CO)cc2)c1,?,.
C[C@H](NC(=O)[C@H]1[C@H](CO)[C@H]2Cn3c(cccc3=O)[C@@H]1N2Cc1cccnc1)c1ccccc1,3,-3
C[C@H](O)C#Cc1cnc2c(c1)C(=O)N([C@@H](C)CO)C[C@H](C)[C@@H](CN(C)CC1CCOCC1)O2,13,15
CCC(=O)N(C)C[C@H]1Oc2cc(C#CC3CCCCC3)ccc2S(=O)(=O)N([C@H](C)CO)C[C@H]1C,-24,-22
C[C@H]1CN([C@@H](C)CO)C(=O)Cc2cc(NC(=O)Cc3ccccc3)ccc2O[C@H]1CN(C)C,2,1
